VDR inh: inhibitors of human vitamin D receptor. P11473. AID 504847. VDR-SRC2-3 peptide fluorescence polarization, 2 h. Potency, µM, inactives show max response, negative = inhibition, hits mostly inhibitors. 400,000 tested, 0.93% active; active means well fitted inhibition curve with a large enough effect; inconclusive means small, poorly fitted or top-dose-only effect, or another doubt; inactive means no such curve, though single readings can be large or run the other way; further: series mostly up to about 120 µM
Target sequence (P11473 whole entry, looked up): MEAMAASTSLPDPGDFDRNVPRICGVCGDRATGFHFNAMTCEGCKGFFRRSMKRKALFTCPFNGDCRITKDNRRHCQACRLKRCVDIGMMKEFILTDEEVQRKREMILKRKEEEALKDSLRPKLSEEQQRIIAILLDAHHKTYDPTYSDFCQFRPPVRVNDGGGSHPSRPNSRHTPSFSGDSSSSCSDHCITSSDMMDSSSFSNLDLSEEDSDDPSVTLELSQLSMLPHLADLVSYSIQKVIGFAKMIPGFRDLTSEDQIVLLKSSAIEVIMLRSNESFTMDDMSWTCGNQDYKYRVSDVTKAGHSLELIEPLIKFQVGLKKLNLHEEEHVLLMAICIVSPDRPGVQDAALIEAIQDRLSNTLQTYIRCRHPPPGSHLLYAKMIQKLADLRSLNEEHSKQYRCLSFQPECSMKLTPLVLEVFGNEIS
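After 23 nl compound addition and a short centrifugation, plates sat for 2 hours at ambient temperature; polarization of fluorescence then indicated loss of VDR binding to peptide SRC2-3.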
Starred values were filed as active, the others as inactive; ? = inconclusive; & = joins results of further samples. On the % scale 0 is the no-effect control and ±100 the full control effect; potency means the concentration at half of the fitted maximal effect.

SMILES | VDR inh
CCOC(=O)c1ccc(NC(=S)NCC(O)c2ccccc2)cc1 (stereo not given) | 8.6%
Cn1nc(C(C)(C)C)cc1C(=O)NNC(=O)c1ccccc1Cl | -15.0%
Cc1cc(NS(=O)(=O)c2ccc(NC(=S)NCc3ccccc3)cc2)no1 | -12.3%
O=C(c1cccc(COCC(F)(F)C(F)F)c1)N1CCN(c2ccccc2)CC1 | 7.6%
CS(=O)(=O)N(CCc1ccccc1)CC(=O)Nc1ccc2c(c1)OCO2 | -17.6%
O=Cc1sc(=O)n(Cc2cccc(C(=O)O)c2)c1Cl | 79.4µM*
CCN1C(=O)C(=O)N(CC(=O)Nc2cc(C)ccc2C)C1=O | -7.7%
Cc1nc(SCC(=O)c2ccc(F)c(F)c2)[nH]c(=O)c1Oc1ccc(F)cc1 | 4.4%
O=C(CCCn1c(SCC(=O)c2ccc(F)cc2)nc2ccccc2c1=O)NCc1ccco1 | 8.1%
COc1ccc(-c2cc(C3C4C=CCC(C)C4C(=O)N3Cc3ccccc3)ccc2F)cc1OC (stereo not given) | -4.0%
O=C(O)CC1(Cc2nc(-c3cccs3)no2)CCCC1 | -0.9%
COc1ccc(N2C(=O)CCC(C(=O)NCCN3CCOCC3)C2c2ccc(OC)c(OC)c2)cc1 (stereo not given) | -6.4%
COc1ccc(-c2nc3ccccc3s2)cc1NC(=O)c1cccc(F)c1 | 0.6%
C=CCOc1c2ccc(C(=O)N(CC)c3ccc(OC)cc3)cc2nn1C | 7.2%
CCN(CC)S(=O)(=O)c1cccc(-c2nnc(SCC(N)=O)n2N)c1 | -18.8%
COC(=O)C/C=C/[C@@H](C)[C@H](OC)c1c(Br)ccc2c1OCO2 | 9.4%
COC(=O)c1sc(C(C)(C)C)cc1CS(=O)(=O)c1ccc(Cl)cc1 | -4.9%
O=C(CSc1nnc2ccccn12)NNC(=O)c1ccc([N+](=O)[O-])cc1 | -3.0%
Nc1nonc1C(=O)NCCNCc1ccc(Cl)c(Cl)c1 | -6.0%
CCN(CC(=O)Nc1ccccc1Br)C1CCCCC1 | -8.5%
CCOC(=O)CCC(=O)Nc1ccc(S(=O)(=O)N2CCC(C)CC2)cc1 | 15.5%
Cc1ccccc1C(=O)Nc1cc(S(=O)(=O)N2CCOCC2)ccc1N1CCN(C)CC1 | -4.4%
COc1ccc(Nc2cc(C(=O)NCCCN3CCN(C)CC3)c3ccccc3n2)c(OC)c1 | 27.5%
O=C(NCCCN1CCCCCC1)C1CC(=O)N(C2CCCC2)C1 (stereo not given) | 21.7%
CCSc1nc(-c2ccc(OC)cc2)cc(-c2ccc(OC)cc2)c1C#N | -5.9%

The list goes on, overlapping the part above by three compounds.
SMILES | VDR inh
COc1ccc(Nc2cc(C(=O)NCCCN3CCN(C)CC3)c3ccccc3n2)c(OC)c1 | 27.5%
O=C(NCCCN1CCCCCC1)C1CC(=O)N(C2CCCC2)C1 (stereo not given) | 21.7%
CCSc1nc(-c2ccc(OC)cc2)cc(-c2ccc(OC)cc2)c1C#N | -5.9%
COc1ccc(-c2ccc(CCC(=O)O)n2-c2cc(Cl)ccc2O)cc1 | -15.1%
CCCCn1c(N)c(N(CCOC)C(=O)CSCC(=O)Nc2cccc(C)c2)c(=O)[nH]c1=O | -21.2%
Cn1nc(C(C)(C)C)cc1C(=O)O | -7.6%
O=C(Cn1cnc2c(nnn2Cc2ccccc2)c1=O)c1ccc(Cl)cc1 | -0.9%
Cc1cc(C(=O)COc2cccnc2[N+](=O)[O-])c(C)n1-c1ccccc1F | -17.9%
CN(N=O)C(=O)N[C@H]1[C@@H](O)[C@H](O)[C@H](CO)O[C@@H]1O | 2.9%
COC(=O)CCNCCSc1nnc(-c2ccco2)n1Cc1ccccc1 | 6.6%
CCOC(=O)N1CCN(C(=O)C2CCN(CC3CCCCC3)CC2)CC1 | -7.1%
O=C(NCCc1csc2nc(-c3ccc(F)cc3)nn12)c1cccc(C(F)(F)F)c1 | 0.2%
O=[N+]([O-])c1cccc(S(=O)(=O)N2CCN(S(=O)(=O)N3CCOCC3)CC2)c1 | -3.1%
CCC(=O)C(C(=O)OC)[C@H](CCc1ccccc1)NC(=O)OC (stereo not given in full) | ?
Cc1cccc(Cc2c(C)nc3nc(SCc4ccccc4F)nn3c2C)c1 | 4.9%
Cc1cc([N+](=O)[O-])nn1CCCC(=O)Nc1c(C)n(C)n(-c2ccccc2)c1=O | 2.5%
CCCc1cc(=O)n2[nH]c(NCc3c(Cl)cccc3Cl)nc2n1 | -4.6%
CC1(CCc2ccccc2)NC(=O)NC1=O (stereo not given) | -4.6%
COc1ccc(NC(=O)CSc2cn[nH]n2)cc1OC | -2.3%
COc1cc(C(CC(=O)Nc2ccc(C)c(F)c2)N2Cc3ccccc3C2=O)cc(OC)c1OC (stereo not given) | -1.6%
CCOC(=O)c1c(/N=C/c2cc([N+](=O)[O-])ccc2O)sc(C)c1C | 4.8%
COc1cc(CNCCSc2nnnn2C)cc(OC)c1OC | 7.3%
COc1cc(Cn2c(=O)c3c(OC)c(C)cnc3n(C)c2=O)cc(OC)c1 | -10.6%
Cc1ccccc1Nc1nc(N)nc(CN2CCN(c3ccccn3)CC2)n1 | 17.7%
O=C(Nc1nc(-c2ccccn2)cs1)c1ncc(Cl)c(Cl)c1Cl | -0.1%
Cc1ccc(-c2c(C(=O)Nc3ccccc3C)c(C)[nH]c(=S)c2C#N)o1 | 5.1%
Cc1ccc(C(=O)Nc2ccc(N3CCOCC3)cc2)cc1 | 7.5%
COc1ccc(C(CNc2nc(-c3cccnc3)nc3ccccc23)N(C)C)cc1 (stereo not given) | 6.0%
SMILES | VDR inh
Cc1ccc(-c2nnn(CC(=O)NCc3ccccc3)n2)c(-n2cnnn2)c1 | -9.7%
C#CCOCCOCCOCCNc1nc(N2CCN(C(=O)[C@H]([C@@H](C)CC)n3cc([C@@H](N)Cc4ccc(O)cc4)nn3)CC2)nc(N2CCN(C(=O)[C@H](Cc3ccc(O)cc3)n3cc([C@@H](N)C(C)CC)nn3)CC2)n1 (stereo not given in full) | 5.3%
CCOc1ccc2nc(N3CCCC(C(=O)Nc4ccc(CC)cc4)C3)sc2c1 (stereo not given) | -5.6%
CCS(=O)(=O)N1CCc2cc(C(=O)NCCc3ccccc3)ccc21 | 8.6%
C#CC1(NC(=O)NC(C)(C)C)CCCCC1 | -3.3%
Cc1nn(C)cc1S(=O)(=O)NCc1ccc2c(c1)OCO2 | -9.2%
COc1ccc(/C=C\c2nc(O)c([N+](=O)[O-])c(=O)[nH]2)cc1O | -22.9%
Cc1cccc(C(=O)OCC(=O)N(CC(C)C)c2c(N)n(Cc3ccccc3)c(=O)[nH]c2=O)c1O | -12.0%
O=C(CSc1ccccc1C(=O)O)NCc1ccccc1 | -19.2%
Cc1cc(-c2ccc(S(=O)(=O)Nc3ccc(Cl)cc3C)cc2)on1 | -0.3%
COc1ccc(CC(=O)NCc2ccccc2)cc1S(=O)(=O)N1CCOCC1 | 1.6%
CC1(C)CC(=O)C2=C(C1)N(c1cccc(Cl)c1)C(=O)NC2(C(F)(F)F)C(F)(F)F | -4.7%
COc1ccc(-c2noc(CC(=O)O)c2-c2ccc(OC)cc2)cc1 | -0.8%
COC(=O)c1cc(C(=O)OCC(=O)NCc2cccs2)cc([N+](=O)[O-])c1 | -1.9%
CCCc1ncc(C(O)c2cccc3ccccc23)n1C (stereo not given) | -4.0%
O=C(CSc1nnc(CNC(=O)c2ccccc2)o1)Nc1ccc2c(c1)OCO2 | -15.1%
CCN1C(=O)[C@@H]2[C@@H](c3ccc(-c4ccc(F)cc4)cc3)N3CCC[C@@]3(C(=O)OC)[C@@H]2C1=O | -15.5%
CCOc1cc2[nH]c(=O)n(CCCC(=O)N3CCN(c4cccc(Cl)c4)CC3)c(=O)c2cc1OCC | 3.3%
O=C(O)COCC(=O)Nc1ccc(OCCc2ccccc2)cc1 | 12.5%
CC(NC(=O)C1CCN(S(=O)(=O)c2cnc[nH]2)CC1)c1ccccc1 (stereo not given) | -12.7%
Cc1ccc(S(=O)(=O)NCC(=O)OCCOc2ccc(Br)cc2)cc1 | -6.2%
Cc1cccc(C)c1OCCOC(=O)c1cccc(S(=O)(=O)N2CCOCC2)c1 | -7.9%
COc1ccc(Br)cc1CN1CCN(Cc2c[nH]c3ccccc23)CC1 | -3.4%
Cc1cc(C)cc(OCC(=O)Nc2ccc(N3CCOCC3)cc2N2CCOCC2)c1 | -4.1%
COc1cccc(NC(=O)Nc2ccc3c(c2)OCO3)c1 | -12.0%
SMILES | VDR inh
CCN(CC)S(=O)(=O)c1ccc(C(C)NCC(=O)Nc2ccccc2C(=O)NC2CC2)cc1 (stereo not given) | -3.4%
O=C1C(Cl)=C(Nc2ccc(O)cc2)C(=O)c2ccccc21 | -15.8%
COc1ccc(S(=O)(=O)c2c(O)c3ccc(C(=O)Nc4cccc(F)c4)cc3[nH]c2=O)cc1 | ?
O=C1Cc2cc(S(=O)(=O)N3CCN(c4cccc(Cl)c4)CC3)ccc2N1 | 4.1%&-2.8%
COc1ccc(-c2noc3c2-c2nc(-c4ccc(Br)cc4)sc2CC3)cc1 | -5.9%
CC(C)N1CCN(Cc2cccc(-n3cccn3)c2)CC1CCO (stereo not given) | -24.2%
Cn1nc(C(=O)Nc2ccc3c(c2)OCCO3)cc1C(=O)O | 16.8%
Cc1c(C(=O)OC2CCCCCC2)[nH]c2c1C(=O)CC(c1ccccc1)C2 (stereo not given) | -21.6%
CCCC(=O)NC(c1ccccc1)c1c(O)ccc2ccccc12 (stereo not given) | -19.3%
CC(=O)c1c(N2CCC(C(N)=O)CC2)nc(=S)n(-c2ccccc2)c1C | 14.3%
COc1ccc(-n2nc(C(=O)NCC(=O)NC3CCCC(C)C3C)c3ccccc3c2=O)c(OC)c1 (stereo not given) | -17.4%
O=S1(=O)CCOCCCN1Cc1ccccc1Br | -0.1%
COc1ccccc1/C=C1\Cc2ccccc2C1=O | -4.2%
Cc1cccc(C)c1NC(=O)C(NC=O)c1ccc(N(C)C)cc1 (stereo not given) | -7.1%
COc1cc(C)c(CN2CCC(Oc3ccc(C(=O)N4CCCC4)cc3)CC2)cc1C | 1.1%
Cc1ccc(/C=N\NC(=O)Cn2c(C)nc3ccccc32)o1 | 11.9%
O=C(NCc1ccccc1CN1CCCC1)C1CCN(S(=O)(=O)c2ccc(Cl)cc2)CC1 | 21.6%
O=C(Nc1ccc(C(=O)N2CCOCC2)cc1)c1cccc([N+](=O)[O-])c1 | -11.1%
O=C(CSC1=NNC(c2ccccn2)S1)Nc1ccc(C(F)(F)F)cc1 (stereo not given) | -27.7%
Cc1cc(C)c(C(=O)COC(=O)C2CCN(c3ccc(C(F)(F)F)cn3)CC2)cc1C | -2.1%
O=C(NCCc1cn2ccsc2n1)C1CCCCC1 | 8.2%
Cc1ccc(S(=O)(=O)Nc2c(O)ccc3ccccc23)cc1 | 31.6µM*
COc1ccc(C2(c3ccc(OC)cc3)NC(=O)N(CC(=O)NCC(F)(F)F)C2=O)cc1 | 6.3%
O=c1cc(-c2ccc(O)c(O)c2)oc2c(C3O[C@H](CO)[C@@H](O)[C@H](O)[C@H]3O)c(O)cc(O)c12 (stereo not given in full) | -9.2%
COc1ccc(C2c3c(n(C)c4ccccc34)C(=O)N2CC(=O)Nc2cccc(Cl)c2)cc1 (stereo not given) | -0.2%
SMILES | VDR inh
COc1ccc(OC)c(Nc2nc(NCCO)c3ccccc3n2)c1 | 22.3%
O=[N+]([O-])c1ccn(-c2nc(-c3ccccc3)cc(C(F)(F)F)n2)n1 | -1.0%
CN(C)CCNC(=O)C(=O)NCC(c1ccc2c(c1)OCO2)N1CCOCC1 (stereo not given) | 19.9%
Cc1ccc(S(=O)(=O)N2CCN(C(=O)c3ccc(N4CCC(C)CC4)c([N+](=O)[O-])c3)CC2)cc1 | -15.6%
O=C1[C@@H]2Cc3ccccc3CN2C(=O)N1c1cccc(F)c1 | 2.1%
C/C(=N\NS(C)(=O)=O)c1ccccc1 | 1.2%
CCNc1ncc2nc(-c3ccc(F)cc3)c(=O)n(Cc3ccc(F)cc3)c2n1 | -3.6%
COc1ccc(C2C(C(=O)Nc3cccnc3)=C(C)Nc3nc(-c4cccs4)nn32)cc1OC (stereo not given) | -5.7%
CCN(CC)C(=O)CSc1nc2c(sc(=S)n2-c2ccccc2)c(=O)[nH]1 | -3.4%
CCOCc1cc(CN2CCC(n3nccc3NC(=O)C3CC3)CC2)ccc1OC | -12.6%
COc1ccc(NC(=O)c2cccn2-c2nnc(N3CCCCC3)s2)cc1Cl | 15.7%
CCOC(=O)c1nn(-c2ccccc2)c(=O)c2c(N)scc12 | 24.0%
Cc1ccc(-c2nnc(SCC(=O)CC(=O)Nc3ccccc3)n2C)cc1 | 16.3%
C=CCNC(=S)NNC(=O)c1ccc(Br)cc1 | -14.9%
COc1ccc(CN(Cc2cc3cccc(C)c3n3nnnc23)C(=O)N2CCOCC2)cc1 | -15.1%
CC(=O)c1ccc(NS(=O)(=O)c2ccc3c(c2)N(C(C)=O)CCO3)cc1 | -15.5%
CN1C(=O)/C(=C/c2ccc3c(c2)OCO3)N=C1c1ccccc1 | 8.9%
CSc1cccc(NC(=O)Cn2cccc2)c1 | 2.2%
CCCCOC(=O)c1ccc(NC(=O)COC(=O)C2CSC3(C)CCC(=O)N23)cc1 (stereo not given) | -8.1%
COc1ccc(N2CCN(C(=O)COC(=O)c3oc4ccc(OC)cc4c3C)CC2)cc1 | -5.6%
Fc1ccc(Nc2nc3ccccc3n3cnnc23)c(F)c1 | 11.9%

An excerpt from above in order of their number in VDR inh, low to high:
SMILES | VDR inh
CCOCc1cc(CN2CCC(n3nccc3NC(=O)C3CC3)CC2)ccc1OC | -12.6%
CCCCOC(=O)c1ccc(NC(=O)COC(=O)C2CSC3(C)CCC(=O)N23)cc1 (stereo not given) | -8.1%
CCNc1ncc2nc(-c3ccc(F)cc3)c(=O)n(Cc3ccc(F)cc3)c2n1 | -3.6%
O=C1[C@@H]2Cc3ccccc3CN2C(=O)N1c1cccc(F)c1 | 2.1%
CSc1cccc(NC(=O)Cn2cccc2)c1 | 2.2%
CCOC(=O)c1nn(-c2ccccc2)c(=O)c2c(N)scc12 | 24.0%

This is a subset; the hit share may differ from the screen's.
